Screening results as filed in PubChem BioAssay.
Vaccinia stage: Vaccinia orthopox stage-specific inhibition | Vaccinia-infected cells, mCherry/Venus stage reporter fluorescence; stronger effect = lower value; some inactives read as strong as hits | activity change (mCherry), % (test concentration not listed) | 0.01% of 89,000 active | AID 1053133;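 active = mCherry past -33% and 40 or more points under the early reporter, replicates agreeing; inconclusive = past -33% without that gap or agreement; tested in A549 cells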;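 also: scaled between vehicle wells and reference inhibitor wells; 23 nL library stock went into each well; one replicate is shown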
Vaccinia stage Venus: also measured in Vaccinia stage; calls as there; activity change (Venus), %; measured here: Venus reporter, other viral stage;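 negative = less Venus signal; first of two replicates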
* hit, by the source's call; u = inconclusive; x = not tested or not shown; & = joins results of further samples. The list is partial. The share of hits here may be higher or lower than overall.

SMILES | Vaccinia stage | Vaccinia stage Venus
O=C(Nc1cccc(F)c1)N1CC(=O)N2[C@@H](CO)[C@@H](c3ccc(-c4ccccc4F)cc3)[C@@H]2C1 | -28 | -17
C[C@H](CO)N1C[C@H](C)[C@@H](CN(C)Cc2ccncc2)OCCCC[C@H](C)Oc2ccc(NS(=O)(=O)c3cccs3)cc2C1=O | -5 | -2
O=C1CN(S(=O)(=O)Cc2ccccc2)C[C@@H]2[C@H](c3ccc(C#Cc4ccc(F)cc4)cc3)[C@@H](CO)N12 | u | x
C[C@@H]1CN([C@@H](C)CO)S(=O)(=O)c2ccc(-c3cccnc3)cc2O[C@@H]1CN(C)C(=O)NC1CCCCC1 | 16 | 5
Cc1cccc(S(=O)(=O)N2CCCCN3[C@@H](CO)[C@H](c4ccc(C#C[C@@H](C)O)cc4)[C@@H]3C2)c1 | -12 | -14
Cc1ccc(-c2ccccc2[C@@H]2[C@@H](C#N)N(C(=O)Cc3cccnc3)[C@H]2CO)cc1 | 1 | 3
CCCNC(=O)Nc1ccc2c(c1)OC[C@H](C)N(CCC)C[C@@H](C)[C@@H](OC)CN(C)C2=O | 20 | 18
CC(C)COC(=O)N(C)C[C@H]1OCc2ccccc2-c2ccccc2C(=O)N([C@@H](C)CO)C[C@@H]1C | 12 | -2
C[C@@H]1CN([C@@H](C)CO)C(=O)c2cc(NC(=O)c3ccccc3)ccc2O[C@@H](C)CCCCO[C@@H]1CN(C)C(=O)Nc1ccc(C(F)(F)F)cc1 | 1 | 4
CC(C)CC#Cc1ccc2c(c1)O[C@@H](CN(C)C(=O)NC1CCCC1)[C@H](C)CN([C@H](C)CO)S2(=O)=O | u | x
C[C@@H]1CN([C@@H](C)CO)C(=O)CCCn2nncc2CO[C@H]1CN(C)CC1CC1 | 29 | 25
O=C1CNC[C@@H]2[C@@H](c3ccc(-c4ccccc4F)cc3)[C@@H](CO)N12 | 12 | 3
COc1ccc(NC(=O)N(C)C[C@H]2Oc3ccc(NC(=O)Nc4ccc5c(c4)OCO5)cc3C(=O)N([C@@H](C)CO)C[C@H]2C)cc1 | 13 | 5
COc1cccc(-c2ccc3c(c2)[C@@H]2[C@@H](CCN2C(=O)Cc2ccncc2)[C@@H](CO)N3)c1 | -5 | 0
COc1cccc(-c2ccc([C@H]3[C@@H](CO)N4CCCCN(C(=O)Cc5ccncc5)C[C@@H]34)cc2)c1 | 16 | 1
C[C@@H]1CN([C@@H](C)CO)C(=O)c2cc(NC(=O)Nc3ccccc3)ccc2O[C@H]1CN(C)S(C)(=O)=O | 4 | 4
C[C@@H]1CCCCO[C@@H](CN(C)Cc2ccc(C(=O)O)cc2)[C@@H](C)CN([C@@H](C)CO)C(=O)c2cc(NC(=O)c3ccccc3)ccc2O1 | 29 | 14
COc1ccc(NC(=O)Nc2ccc3c(c2)C(=O)N([C@H](C)CO)C[C@@H](C)[C@@H](CN(C)C(=O)NC2CCCCC2)O3)cc1 | 6 | 2
CC(=O)N(C)C[C@@H]1Oc2cc(-c3cccnc3)ccc2S(=O)(=O)N([C@@H](C)CO)C[C@@H]1C | 27 | 6
C[C@@H]1CN([C@H](C)CO)S(=O)(=O)c2ccc(-c3cccnc3)cc2O[C@H]1CN(C)C(=O)C1CCC1 | 15 | 4
O=C(N[C@H]1CC[C@@H](CCNC(=O)C2CCOCC2)O[C@H]1CO)c1ccccn1 | 1 | 5
O=C(C[C@@H]1CC[C@H](NC(=O)C2CCOCC2)[C@@H](CO)O1)NCc1ccccc1Cl | -10 | -10
C[C@H](NC(=O)C[C@H]1C=C[C@H](NC(=O)CN2CCOCC2)[C@H](CO)O1)c1ccccc1 | -4 | -1
C[C@H](CO)N1C[C@H](C)[C@H](CN(C)Cc2cccc(C(=O)O)c2)OCc2ccccc2-c2c(n(C)c3ccccc23)C1=O | 25 | 13
CCC(=O)Nc1ccc2c(c1)C(=O)N(C)C[C@@H](OC)[C@@H](C)CN(Cc1ccccc1C(=O)O)[C@@H](C)CO2 | 7 | 1
COc1ccccc1CNC(=O)C[C@@H]1CC[C@H]2[C@@H](COC[C@H](O)CN2C(=O)Nc2ccc(Cl)cc2)O1 | 2 | 5
O=C(Nc1ccc(F)cc1)N1CC(=O)N2[C@@H](CO)[C@H](c3ccc(Br)cc3)[C@@H]2C1 | 13 | 9
Cc1noc(C)c1NC(=O)N(C)C[C@@H]1Oc2ccc(N(C)C)cc2CC(=O)N([C@H](C)CO)C[C@@H]1C | 2 | 0
O=C(Cc1ccccc1)N1CC(=O)N2[C@H](C1)[C@H](c1ccc(C3=CCCC3)cc1)[C@@H]2CO | 4 | -6
O=C(N[C@@H]1CC[C@@H](CCNC(=O)c2ccccc2F)O[C@@H]1CO)c1cnccn1 | 9 | 5
C[C@H](CO)N1C[C@H](C)[C@H](CN(C)C(=O)Nc2ccccc2)OCCCC[C@H](C)Oc2ccc(NC(=O)Nc3ccccc3)cc2C1=O | -5 | 0
C[C@H](CO)N1C[C@H](C)[C@@H](CN(C)C(=O)Nc2cccc3ccccc23)OCCCC[C@H](C)Oc2ccc(NS(=O)(=O)c3cccs3)cc2C1=O | 21 | 17
O=C(NCC[C@@H]1CC[C@H](NS(=O)(=O)c2ccccc2F)[C@@H](CO)O1)c1ccc(F)cc1 | -6 | -7
COc1ccc(NC(=O)N(C)C[C@H]2Oc3ccc(NC(=O)Cc4cn(C)c5ccccc45)cc3C(=O)N([C@H](C)CO)C[C@@H]2C)cc1 | 11 | 14
C[C@@H]1CN([C@H](C)CO)C(=O)c2cc(/C=C/c3ccccc3)cnc2O[C@@H]1CN(C)Cc1cncnc1 | -8 | -5
CCN(C[C@@H]1[C@H](c2ccccc2)[C@@H](CO)N1C(C)=O)C(=O)c1ccccn1 | 15 | 11
C[C@@H]1CCCCO[C@H](CN(C)C(=O)CCC(F)(F)F)[C@H](C)CN([C@H](C)CO)C(=O)c2cc(NS(=O)(=O)c3ccccc3)ccc2O1 | -3&-21 | -4&-16
C[C@@H]1CN([C@@H](C)CO)C(=O)c2cc(NC(=O)CCC(F)(F)F)ccc2O[C@@H]1CN(C)S(=O)(=O)c1cccs1 | 5 | 7
C[C@@H]1CN([C@H](C)CO)C(=O)c2cc(-c3cccc(C(=O)N(C)C)c3)cnc2O[C@H]1CN(C)S(=O)(=O)c1ccccc1 | 9 | 5
Cc1ccc(S(=O)(=O)N(C)C[C@H]2OCCCC[C@@H](C)Oc3ccc(NC(=O)Nc4ccccc4)cc3C(=O)N([C@H](C)CO)C[C@@H]2C)cc1 | 8 | 9
O=S(=O)(c1ccc(F)cc1)N1C[C@@H]2[C@H](c3ccccc31)[C@@H](CO)N2Cc1ccccc1Cl | -28 | -4
COCC(=O)Nc1ccc2c(c1)OC[C@@H](C)N(Cc1ccccc1OC)C[C@H](C)[C@@H](OC)CN(C)C2=O | -13 | -4
C[C@H](CO)N1C[C@H](C)[C@H](CN(C)Cc2ccncc2)Oc2ccc(NC(=O)Nc3ccccc3)cc2CC1=O | -18 | -11
C[C@@H]1CN([C@H](C)CO)C(=O)c2cc(C#CC3CCCC3)cnc2O[C@@H]1CN(C)C(=O)c1ccncc1 | -15 | -10
Cc1cc(C(=O)Nc2cccc3c2O[C@H](CN(C)C(=O)NC2CCCCC2)[C@@H](C)CN([C@@H](C)CO)C3=O)n(C)n1 | -1 | -2
COc1ccc(NC(=O)N(C)C[C@H]2Oc3c(NC(=O)Nc4ccc(F)cc4)cccc3C(=O)N([C@H](C)CO)C[C@H]2C)cc1 | 0 | 2
C[C@@H]1CCCCO[C@@H](CN(C)C(=O)c2ccncc2)[C@@H](C)CN([C@H](C)CO)C(=O)c2cc(NC(=O)c3ccccc3)ccc2O1 | 25 | 12
CO[C@@H]1CN(C)C(=O)c2cc(NS(=O)(=O)c3ccc(-c4ccccc4)cc3)ccc2OC[C@@H](C)NC[C@@H]1C | u | x
C[C@@H]1CN([C@H](C)CO)C(=O)c2c(c3ccccc3n2C)-c2ccccc2CO[C@@H]1CN(C)C(=O)Nc1ccnc(N2CCOCC2)c1 | u | x
C[C@H](CO)N1C[C@H](C)[C@@H](CN(C)CC2CC2)Oc2ccc(NC(=O)CCCN(C)C)cc2C1=O | 12 | 9
C[C@@H](O)C#Cc1cnc2c(c1)C(=O)N([C@@H](C)CO)C[C@H](C)[C@H](CN(C)CC1CCOCC1)O2 | 21 | 21
CO[C@H]1CN(C)C(=O)c2cc(NC(=O)NC3CCCCC3)ccc2OC[C@H](C)N(CCc2ccccc2)C[C@H]1C | u | x
COc1ccc(S(=O)(=O)Nc2ccc3c(c2)CC(=O)N([C@H](C)CO)C[C@@H](C)[C@@H](CN(C)Cc2ccc(-c4ccccc4)cc2)O3)cc1 | u | x
C[C@@H]1CN([C@H](C)CO)C(=O)c2cccc(NC(=O)c3ccncc3)c2O[C@@H]1CN(C)Cc1ccc2c(c1)OCO2 | 5 | 9
O=C(C[C@@H]1CC[C@H]2[C@@H](COC[C@@H](O)CN2S(=O)(=O)c2ccc(Cl)cc2)O1)N[C@H]1CCN(Cc2ccccc2)C1 | -24 | -18
COc1cccc(C(=O)Nc2ccc3c(c2)OC[C@H](C)N(CC2CC2)C[C@@H](C)[C@H](OC)CN(C)C3=O)c1 | -9 | -4
CCCNC(=O)N(C)C[C@H]1Oc2cc(C#CC(C)(C)O)ccc2S(=O)(=O)N([C@H](C)CO)C[C@@H]1C | 8 | 7
CO[C@H]1CN(C)C(=O)c2ccc(NS(C)(=O)=O)cc2OC[C@@H](C)N(Cc2nccs2)C[C@@H]1C | 2 | 5
C[C@@H]1CCCCO[C@@H](CN(C)C(=O)Nc2cccc3ccccc23)[C@H](C)CN([C@H](C)CO)C(=O)c2cc(NS(C)(=O)=O)ccc2O1 | 14 | 9
C[C@H](O)C#Cc1ccc2c(c1)O[C@@H](CN(C)Cc1cccnc1)[C@H](C)CN([C@H](C)CO)S2(=O)=O | 3 | -4
(list continues)
SMILES | Vaccinia stage | Vaccinia stage Venus
Cc1ccc(S(=O)(=O)N[C@@H]2C=C[C@@H](CC(=O)NCc3ccc(Cl)c(Cl)c3)O[C@@H]2CO)cc1 | 11 | 9
O=S(=O)(c1ccccc1F)N1[C@@H]2CNC[C@H]1C2c1ccc(-c2cccc(F)c2)cc1 (stereo partly drawn) | -8&7 | -4&4
CNC[C@H]1OCCCC[C@@H](C)Oc2ccc(NC(=O)Nc3ccc4c(c3)OCO4)cc2C(=O)N([C@@H](C)CO)C[C@H]1C | 6 | 4
Cc1noc(C)c1NC(=O)Nc1ccc2c(c1)CC(=O)N([C@@H](C)CO)C[C@@H](C)[C@@H](CN(C)C(=O)Nc1ccc(F)cc1)O2 | 10 | 10
N#C[C@@H]1[C@@H](c2ccc(C#Cc3cccnc3)cc2)[C@@H](CO)N1C(=O)C1CCC1 | 1 | 2
O=C(C[C@@H]1CC[C@H](NC(=O)C2CC2)[C@H](CO)O1)NCc1ccccc1Cl | -5 | -4
C[C@@H]1CN([C@@H](C)CO)C(=O)Cc2cc(NC(=O)Cc3ccccc3)ccc2O[C@@H]1CN(C)Cc1ccc(Cl)c(Cl)c1 | u | x
CN(C)C(=O)c1ccc(-c2ccc([C@@H]3[C@H](CO)N4CCCCN(Cc5cncnc5)C[C@@H]34)cc2)cc1 | 16 | 2
C=C[C@@H](OC)[C@H](OC(=O)Nc1ccc(SC)cc1)c1ccc(OCCO)cc1 | 11 | -3
COc1ccc(NC(=O)N[C@H]2CC[C@@H](CCn3cc(-c4ccccc4)nn3)O[C@H]2CO)cc1 | -6 | -11
N#C[C@@H]1[C@H](c2ccc(C3=CCCC3)cc2)[C@H](CO)N1C(=O)C1CCOCC1 | 36 | 33
CC(C)NC(=O)N(C)C[C@H]1Oc2c(NS(C)(=O)=O)cccc2C(=O)N([C@@H](C)CO)C[C@H]1C | 9 | 7
C[C@H](NC(=O)C[C@H]1CC[C@@H](NC(=O)c2cccnc2)[C@@H](CO)O1)c1ccccc1 | 4 | 2
C[C@@H]1CN([C@@H](C)CO)C(=O)c2cc(NS(=O)(=O)c3cn(C)cn3)ccc2O[C@@H](C)CCCCO[C@@H]1CN(C)C(=O)Nc1ccc(C(F)(F)F)cc1 | 3 | -13
CCCN(C)C[C@H]1OCCCC[C@H](C)Oc2ccc(NS(=O)(=O)c3c(C)noc3C)cc2C(=O)N([C@H](C)CO)C[C@H]1C | 1 | -4

Molecules shown so far containing an aryl methoxy group (11):
SMILES | Vaccinia stage | Vaccinia stage Venus
COc1ccc(NC(=O)N(C)C[C@H]2Oc3ccc(NC(=O)Nc4ccc5c(c4)OCO5)cc3C(=O)N([C@@H](C)CO)C[C@H]2C)cc1 | 13 | 5
COc1cccc(-c2ccc3c(c2)[C@@H]2[C@@H](CCN2C(=O)Cc2ccncc2)[C@@H](CO)N3)c1 | -5 | 0
COc1cccc(-c2ccc([C@H]3[C@@H](CO)N4CCCCN(C(=O)Cc5ccncc5)C[C@@H]34)cc2)c1 | 16 | 1
COc1ccc(NC(=O)Nc2ccc3c(c2)C(=O)N([C@H](C)CO)C[C@@H](C)[C@@H](CN(C)C(=O)NC2CCCCC2)O3)cc1 | 6 | 2
COc1ccccc1CNC(=O)C[C@@H]1CC[C@H]2[C@@H](COC[C@H](O)CN2C(=O)Nc2ccc(Cl)cc2)O1 | 2 | 5
COc1ccc(NC(=O)N(C)C[C@H]2Oc3ccc(NC(=O)Cc4cn(C)c5ccccc45)cc3C(=O)N([C@H](C)CO)C[C@@H]2C)cc1 | 11 | 14
COCC(=O)Nc1ccc2c(c1)OC[C@@H](C)N(Cc1ccccc1OC)C[C@H](C)[C@@H](OC)CN(C)C2=O | -13 | -4
COc1ccc(NC(=O)N(C)C[C@H]2Oc3c(NC(=O)Nc4ccc(F)cc4)cccc3C(=O)N([C@H](C)CO)C[C@H]2C)cc1 | 0 | 2
COc1ccc(S(=O)(=O)Nc2ccc3c(c2)CC(=O)N([C@H](C)CO)C[C@@H](C)[C@@H](CN(C)Cc2ccc(-c4ccccc4)cc2)O3)cc1 | u | x
COc1cccc(C(=O)Nc2ccc3c(c2)OC[C@H](C)N(CC2CC2)C[C@@H](C)[C@H](OC)CN(C)C3=O)c1 | -9 | -4
COc1ccc(NC(=O)N[C@H]2CC[C@@H](CCn3cc(-c4ccccc4)nn3)O[C@H]2CO)cc1 | -6 | -11
